# Screening results: PubChem, several laboratories
# MT1-MMP act inh: blockers of MT1-MMP proenzyme processing, primary screen, HT1080 RFP-PRO-GFP cells, GFP/RFP fluorescence; Matrix metalloproteinase-14 (Homo sapiens), P50281; GFP/RFP ratio fluorescence, overnight; percent of plate control window, DMSO zero; GFP/RFP ratio change, % at 20 µM; 0.061% of 360,000 active;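 active = GFP/RFP ratio change of at least 30% with cell ATP level not reduced by more than half and red fluorescence within 50% of control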; note: strong numbers were not always called active
#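 Read-out: GFP/RFP fluorescence ratio; Test system: RFP-PRO-GFP reporter HT1080 cells; Compound dosing: single-point 20 µM compound, 1% DMSO; Times: overnight compound exposure at 37 °C.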
# Yeast UUG start: modulators of yeast start codon fidelity, primary screen, whole organism, S. cerevisiae, single point, plate reader. S. cerevisiae UUG-firefly luciferase reporter, luminescence/redox ratio. 0.13% of 350,000 active. activity score, % at 18.7 µM;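 active = replicate mean at a twofold rise or more, about +100% in these data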;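 note: firefly luciferase made from a UUG start codon reports start codon fidelity; reporter light over untreated wells divided by growth signal over untreated wells; some hits fall short of that in this replicate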
# Rce1 inh: yeast Rce1p protease inhibitors, primary screen, biochemical, fluorescence, cell-free homogeneous | CAAX prenyl protease 2 (Saccharomyces cerevisiae (strain ATCC 204508 / S288c)), Q03530 | yeast membranes, quenched prenylated peptide cleavage fluorescence | AID 2563, 2010 | calls only | 0.27% of 290,000 active;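 active = fall in fluorescence gain of 50% or more versus controls, with final raw signal at or below 3038400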;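 note: plate controls were neutral control wells for no effect and wells lacking membranes for full effect; tested at 10 µM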
# Target sequence (Q03530 whole entry, looked up): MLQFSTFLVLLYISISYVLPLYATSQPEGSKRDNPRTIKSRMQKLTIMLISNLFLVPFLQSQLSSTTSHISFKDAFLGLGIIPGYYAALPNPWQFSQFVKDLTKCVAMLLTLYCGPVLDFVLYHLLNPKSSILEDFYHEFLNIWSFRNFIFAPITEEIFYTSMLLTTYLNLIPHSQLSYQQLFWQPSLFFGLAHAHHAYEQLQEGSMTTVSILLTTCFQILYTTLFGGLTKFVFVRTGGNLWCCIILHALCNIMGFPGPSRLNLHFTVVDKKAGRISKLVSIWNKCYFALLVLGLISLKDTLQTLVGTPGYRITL
# CSC inhib: cancer stem cell viability inhibitors, primary screen, luminescence; cancer stem cell-like cells viability; inhibition, % at 7.5 µM; 1.1% of 300,000 active;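 active = mean at 75% or more and at least half the replicates too; tested in HMLE shEcad cells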;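 note: 0% = median of negative and 100% = median of positive control wells; the first replicate is given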
# PABP polyA inh: PABP poly(A) RNA binding inhibitors, primary screen, biochemical, fluorescence polarization, uHTS; Polyadenylate-binding protein 1 (Homo sapiens), P11940; AID 2014, 2009; inhibition, % at 35 µM; 1% of 290,000 active;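 active = 50% or more with normal probe brightness, or confirmed in later tests; about a fifth of its hits are not listed in these tables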;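 note: calls also rest on retests at 20 µM and on dose response follow-up; controls were probe without protein and protein plus probe with vehicle; some compounds called inactive have numbers as strong as hits; many hits fall short of the cut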
# Target sequence (P11940 whole entry, looked up): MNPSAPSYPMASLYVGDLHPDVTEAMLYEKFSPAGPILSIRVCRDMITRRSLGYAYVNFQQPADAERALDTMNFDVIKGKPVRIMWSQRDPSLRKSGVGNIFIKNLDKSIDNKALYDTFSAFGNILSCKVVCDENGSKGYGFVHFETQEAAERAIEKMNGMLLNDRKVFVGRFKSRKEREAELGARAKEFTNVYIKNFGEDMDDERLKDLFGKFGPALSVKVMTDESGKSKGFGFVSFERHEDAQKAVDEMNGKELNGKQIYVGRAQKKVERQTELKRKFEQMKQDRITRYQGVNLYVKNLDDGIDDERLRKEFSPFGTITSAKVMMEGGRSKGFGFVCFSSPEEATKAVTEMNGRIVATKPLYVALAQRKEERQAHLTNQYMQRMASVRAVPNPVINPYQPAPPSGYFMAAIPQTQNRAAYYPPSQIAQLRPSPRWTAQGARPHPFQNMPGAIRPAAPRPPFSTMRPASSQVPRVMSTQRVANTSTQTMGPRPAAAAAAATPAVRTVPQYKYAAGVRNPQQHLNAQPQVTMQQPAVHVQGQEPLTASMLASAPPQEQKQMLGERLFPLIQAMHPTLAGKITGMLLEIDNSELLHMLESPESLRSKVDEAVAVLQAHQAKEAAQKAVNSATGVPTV
# eIF4H FP inh: human eIF4H binding inhibitors, primary screen, translation initiation inhibitor project, biochemical, uHTS, fluorescence polarization; eIF4H fluorescence polarization binding assay; inhibition, % at 35 µM; 0.94% of 290,000 active; Eukaryotic translation initiation factor 4H (Homo sapiens), Q15056;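 active = 50% or more with normal probe brightness, or confirmed in later tests; about a fifth of its hits are not listed in these tables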;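 note: calls also rest on retests at 20 µM and on dose response follow-up; 0% = protein and probe with vehicle and 100% = probe without protein; strong numbers were not always called active; many hits fall short of the cut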
# HIV Env fusion: inhibitors of HIV-1 Env-driven cell-cell fusion, primary screen, HeLa-JRFL effector, CEM21 target cells, luciferase; inhibition, % at 12.3 µM; 1.1% of 360,000 active;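 active = mean replicate inhibition score of at least 50 and every replicate individually at or above 50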;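 note: 0% = plate neutral controls and 100% = maraviroc near 300 nM; one replicate is shown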
# eIF4H FP inh retest: second read-out of eIF4H FP inh, no call of its own (marks repeat the call); inhibition, %; compound at 20 µM; confirmation average;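 mean of two retest wells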
# PABP polyA inh retest: second read-out of PABP polyA inh, no call of its own (marks repeat the call); inhibition, %; compound at 20 µM; confirmation repeats;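 mean of two retest wells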
# MT1-MMP act inh RFP: also measured in MT1-MMP act inh; calls as there; RFP signal change, %; measured here: RFP expression control read;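 0 = vehicle wells; hits needed this value within 50% of zero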
# The depositor's hits bear a star; i = inactive; . = not tested or not shown.
SMILES,MT1-MMP act inh,MT1-MMP act inh RFP,Yeast UUG start,Rce1 inh,CSC inhib,PABP polyA inh,eIF4H FP inh,HIV Env fusion,others
CCC(CC)C(=O)NCCCCc1ccccc1,1,-1,-1,i,-7,1,2,5,
CC(C)[C@H]1COC(NC2=N[C@@H](C(C)C)CO2)=N1,-3,1,-8,i,1,3,1,-14,
O=C(c1ccc(F)cc1)N1CCC(O)(c2cccnc2)CC1,-1,-1,-10,i,-16,0,4,.,
CCN(CC)c1ccc(NC(=S)NC(=O)c2cccs2)cc1,5,-6,-11,i,-9,8,-5,-39,
CCCC(NC(=O)CCl)c1ccccc1 (configuration not stated),0,1,.,i,15,1,-4,30,
O=C(CCN1C(=O)C2C3C=CC(C3)C2C1=O)Nc1ccccn1 (configuration not stated),3,-2,-11,i,-16,-4,2,-7,
COc1cccc(CC2(CO)CCN(Cc3cnc(-c4cccc(C)c4)nc3)CC2)c1,0,-15,.,i,-9,-5,10,22,
CC(C)C(NC(=O)c1ccco1)C(=O)NCc1ccc(C(=O)O)cc1 (configuration not stated),-2,1,-2,i,-11,1,-5,3,
COc1ccc(NS(=O)(=O)c2ccc(C)c(C(=O)NCC(c3ccco3)N3CCCCC3)c2)cc1 (configuration not stated),1,0,.,i,-5,.,.,.,
Cn1cccc1C(=O)C(=O)Nc1ccc(F)c(F)c1,4,-1,-16,i,-3,0,3,-58,
COc1ccc(CCNC(=O)CN(c2ccccc2)S(C)(=O)=O)cc1,-3,0,.,i,9,-11,-12,3,
CCn1c(O)c(/C=C2\C=Nc3ccccc32)sc1=Nc1ccccc1,5,-5,-17,i,20,0,-3,.,
Cc1cc2nc(-c3cc(N4CCOCC4)ccc3[N+](=O)[O-])ccn2n1,4,3,-11,i,-3,-5,-1,-3,
Cc1ccc(O)c(C2=Nc3ccccc3N=C(c3cccc([N+](=O)[O-])c3)C2)c1,-1,-9,.,i,37,1,5,5,
Cc1ccccc1OCCOc1ccccc1C=C(C#N)C#N,.,.,.,.,55,1,9,.,
CN(C)/C=C/C(=O)c1cnc(-c2ccccn2)s1,-3,5,.,i,.,-7,9,3,
CC(C)(C)CN1CCNC(=O)C1CC(=O)NCc1cccc(-n2cccn2)c1 (configuration not stated),5,8,-11,i,-6,1,2,10,
O=C(NCc1ccc(/C=c2\sc3n(c2=O)CCN=3)o1)C(=O)Nc1ccccc1,.,.,.,i,10,-11,82*,.,eIF4H FP inh retest=89*;PABP polyA inh retest=4
Nc1cc(=O)[nH]c(SCC(=O)Nc2ccc(S(=O)(=O)N3CCCCC3)cc2)n1,2,3,.,i,.,0,-8,2,
O=C(Nn1c(C2CC2)nc2ccccc2c1=O)c1ccco1,-6,2,-3,i,-1,10,2,-7,
Cc1cccc(N2C(=O)SC(SC(=Nc3ccccc3)Nc3ccccc3)C2=O)c1 (configuration not stated),-8,-6,.,i,-5,-2,14,12,
CC1(C)OC(=O)C2=C(CC(CCc3ccccc3)OC2c2ccccc2)O1 (configuration not stated),-4,-5,-3,.,.,.,.,9,
O=C(Nc1nc(-c2ccco2)c(-c2ccco2)s1)c1ccco1,2,6,-7,i,-2,.,.,-25,
Cc1ccc(C(=O)Nc2ccc3cn[nH]c3c2)cc1S(=O)(=O)N1CCOCC1,4,1,.,i,-19,15,4,7,
Cc1ccc(S(=O)(=O)NCC(c2ccco2)N2CCc3ccccc32)cc1 (configuration not stated),-2,-13,.,i,-9,.,.,18,
O=S1(=O)CCC(NC(=S)SCCOc2ccccc2)C1 (configuration not stated),2,-9,-20,i,28,-5,0,6,
Cc1noc(C)c1COC(=O)Cn1c(C)nc2ccccc21,2,-1,-22,i,1,-10,2,.,
COc1ccc(OC)c(CCNC(=O)CCc2nnc3ccc(N4CCCC4)nn23)c1,-1,2,-13,i,-28,4,-6,2,
O=C(COC(=O)c1cc[n+]([O-])cc1)Nc1ccc(Cl)cc1Cl,4,4,-4,.,-12,.,.,9,
O=C(c1ccccc1)c1nc2ccccc2[nH]c1=O,1,4,-14,i,-3,6,1,-13,
Cn1c(=O)n(CC(=O)Nc2ccc(F)cc2)c2ccccc21,8,4,-14,i,-10,4,-7,-25,
Cc1nc2ccccc2nc(=O)c1NNc1ccccc1,9,2,.,.,.,-4,-6,-5,
O=C1c2cc3ccccc3c(-c3ccccc3)c2C(=O)N1c1ccccn1,-1,0,.,i,8,-6,-2,8,
c1cncc(-c2nc(-c3cccs3)cs2)c1,0,2,-22,i,.,11,3,.,
Cc1cccc(NC(=O)/C(C#N)=C/c2cccc([N+](=O)[O-])c2)n1,-4,0,2,i,-3,-2,3,-11,
N/C(=N\OS(=O)(=O)c1ccc2ccccc2c1)c1cccnc1,2,5,1,i,-6,11,-5,-13,
Cc1cc(Nc2cc(Cl)nc(Sc3ccc(NC(=O)C4CC4)cc3)n2)n[nH]1,4,-3,-19,i,24,.,.,-33,
Oc1csc(Cc2nc(-c3ccccc3F)cs2)n1,-5,-1,.,i,1,12,11,-70,
Cc1ccc(C2NC(=O)c3ccccc3N2)s1 (configuration not stated),-2,-2,.,i,-11,3,-4,.,
CCCCn1c(SCC(=O)N(CC)C2CCS(=O)(=O)C2)nc2cc(S(N)(=O)=O)ccc21 (configuration not stated),-4,0,.,i,2,9,1,5,
CCCN(CCC)CCOc1cc(C)ccc1C(C)C,4,3,.,i,-1,13,11,8,
O=C1N/C(=N/Nc2ccccc2)S/C1=C\c1ccccc1,-2,-1,-35,i,34,0,-3,.,
O=C(CCn1c(=O)oc2ccccc21)NC1=NCCS1,11,5,-4,i,0,5,-6,.,
COc1ccc(N2CCN(C(=O)CN(c3ccc(Br)cc3)S(C)(=O)=O)CC2)cc1,5,3,0,i,7,-1,-3,.,
COc1ccc(-c2cc(C(=O)N3CCN(C(=O)c4ccco4)CC3)[nH]n2)cc1,-9,-3,-4,i,-2,4,-4,6,
Cc1ccc(Cl)cc1NC(=O)CN1CCN(S(=O)(=O)N2CCOCC2)CC1,3,2,-13,i,.,-1,5,-4,
COc1ccc(NC(C)c2cc(Cl)ccc2O)cc1 (configuration not stated),-2,0,-17,i,-4,15,1,.,
CC(C)C(=O)NC(=S)Nc1ccccc1C(=O)NC1CCCCC1,2,3,.,i,0,8,3,-10,
COc1ccc2c(c1)CCCC21NC(=O)N(CC(=O)NCc2cccs2)C1=O (configuration not stated),-3,-1,-2,.,-11,.,.,4,
CCN(CCCNC(=O)CC(C(=O)N1CCc2ccccc21)n1ccnc1)c1cccc(C)c1 (configuration not stated),-1,-3,-14,i,-2,1,3,57*,
C=C(C)Cn1c(N)cc(=O)nc1SCC(=O)Nc1cccc(C(F)(F)F)c1,-2,2,-1,i,-9,-12,-4,-30,
CN1CCN(C(=O)C2=C[C@H](c3ccc4c(c3)OCO4)C[C@H](OCc3ccc(CO)cc3)O2)CC1,0,-2,-20,i,-8,-2,-10,-91,
O=C(Nc1ccc2c(c1)C(=O)OC2)c1ccc(C(F)(F)F)cc1,3,-4,-17,i,-4,5,-9,0,
CC(C)(C)C(=O)OCc1nc(-c2ccc(Cl)cc2)cs1,-2,-4,-25,i,0,-2,-3,-19,
CC(C)NS(=O)(=O)c1ccc(NC(=O)C2CC3C=CC2C3)cc1 (configuration not stated),-2,-3,1,i,-4,1,-6,.,
COc1ccc(CSCCc2n[nH]c(=S)n2-c2ccccc2)cc1C,-1,-14,-12,i,-3,-7,1,10,
O=C(CSc1nc(=O)n(CCN2CCOCC2)c2c1CCC2)Nc1ccc(OC(F)(F)F)cc1,1,-13,.,i,-11,.,.,-13,
O=C(Nc1ccccc1C(F)(F)F)c1c(F)cccc1Cl,-1,0,.,i,-10,-13,-13,-3,
N#CC(C#N)=Cc1cccn1-c1ccc(S(N)(=O)=O)cc1,1,2,.,i,15,54*,0.5*,7,eIF4H FP inh retest=73*;PABP polyA inh retest=55*
COc1ccc(CCNC(=O)Cn2nnc(-c3ccc(N4CCOCC4)cc3)n2)cc1OC,2,-1,-8,i,-1,3,4,.,

# Next section; it opens with the 4 that closed the last part.
SMILES,MT1-MMP act inh,MT1-MMP act inh RFP,Yeast UUG start,Rce1 inh,CSC inhib,PABP polyA inh,eIF4H FP inh,HIV Env fusion,others
O=C(CSc1nc(=O)n(CCN2CCOCC2)c2c1CCC2)Nc1ccc(OC(F)(F)F)cc1,1,-13,.,i,-11,.,.,-13,
O=C(Nc1ccccc1C(F)(F)F)c1c(F)cccc1Cl,-1,0,.,i,-10,-13,-13,-3,
N#CC(C#N)=Cc1cccn1-c1ccc(S(N)(=O)=O)cc1,1,2,.,i,15,54*,0.5*,7,eIF4H FP inh retest=73*;PABP polyA inh retest=55*
COc1ccc(CCNC(=O)Cn2nnc(-c3ccc(N4CCOCC4)cc3)n2)cc1OC,2,-1,-8,i,-1,3,4,.,
CN(C(=O)CN1C(=O)c2ccccc2S1(=O)=O)C1CCCCC1,-4,-1,-6,.,5,.,.,-17,
COc1ccc(Cl)cc1NC(=O)CN(C)C(=O)c1cc2ccccc2cc1O,4,2,7,i,-13,.,.,30,
COc1ccc(C(=O)NNC(=O)CSc2nnc(C)n2CC2CCCO2)cc1 (configuration not stated),-4,-3,-2,i,18,-7,-8,8,
S=c1[nH]nc(CCc2nc3ccccc3[nH]2)n1-c1ccccc1,4,3,.,i,-4,1,0,-12,
O=C(CCc1ccccc1)NCCc1nc2ccccc2[nH]1,1,0,.,i,-11,90,1,3,eIF4H FP inh retest=-4;PABP polyA inh retest=25
Cc1ccc(CSCC(=O)NN=C2CCN(C)CC2)cc1,-1,1,.,i,.,-12,-2,15,
CCOC(=O)COn1c(SCC(=O)OCC)nc2ccccc2c1=O,-3,1,-4,i,-11,-6,-2,-14,
CC(=O)Nc1ccc(-c2ccnc3c2CC(C)(C(=O)Nc2ccc(C(C)C)cc2)O3)cc1 (configuration not stated),1,0,-3,.,.,.,.,6,
CC(C)C[C@H](NC(=O)c1nc[nH]c1C(=O)NCc1ccccc1)C(=O)OC(C)(C)C,-5,-7,-7,i,19,-8,0,-9,
COCCN(C(=O)CCl)C(C(=O)NC1CCCCC1)c1ccccc1C (configuration not stated),-1,2,-14,i,.,-6,3,60*,
O=C(Cc1ccc(Cl)c(Cl)c1)Nc1cccc2ncccc12,1,-1,.,i,1,0,24,-21,
CCCCn1c(=S)[nH]c2cc(S(=O)(=O)N3CCCCC3)ccc21,-4,-8,-22,i,13,2,-16,16,
CNC(=S)N(C)[C@H]1c2c(ccc3ccccc23)OC[C@H]1CO,-7,-6,.,i,-7,-2,-6,34,
CCn1cc([N+](=O)[O-])c(C(=O)N2N=C(c3ccccc3)CC2c2ccc([N+](=O)[O-])cc2)n1 (configuration not stated),-8,-7,.,i,10,-4,-11,.,
O=C(COc1ccc(Cl)cc1)OCC(=O)N1CCOCC1,-4,2,-5,.,-9,.,.,.,
COc1ccc(CCNc2ccc(C(CC(N)=O)NC(=O)Cc3cccc4ccccc34)cc2[N+](=O)[O-])cc1 (configuration not stated),0,-4,-14,i,23,-17,7,-9,
Cc1onc(-c2c(F)cccc2Cl)c1C(=O)Nc1nnc(C(F)(F)F)s1,11,-27,-21,i,57,0,-12,29,
O=C(Nc1cccc(F)c1)c1ccc2ncsc2c1,-4,-2,-16,i,.,4,1,.,
